Assay outcomes from PubChem.
VDR inhibitor: blocks the human vitamin D receptor; P11473; Potency, µM, inactives show max response, negative = inhibition, hits mostly inhibitors; hit rate 0.93% among 400,000; VDR-SRC2-3 peptide fluorescence polarization, 2 h; active means well fitted inhibition curve with a large enough effect; inconclusive means small, poorly fitted or top-dose-only effect, or another doubt; inactive means no such curve, though single readings can be large or run the other way; further: series mostly up to about 120 µM
Target sequence (P11473 whole entry, looked up): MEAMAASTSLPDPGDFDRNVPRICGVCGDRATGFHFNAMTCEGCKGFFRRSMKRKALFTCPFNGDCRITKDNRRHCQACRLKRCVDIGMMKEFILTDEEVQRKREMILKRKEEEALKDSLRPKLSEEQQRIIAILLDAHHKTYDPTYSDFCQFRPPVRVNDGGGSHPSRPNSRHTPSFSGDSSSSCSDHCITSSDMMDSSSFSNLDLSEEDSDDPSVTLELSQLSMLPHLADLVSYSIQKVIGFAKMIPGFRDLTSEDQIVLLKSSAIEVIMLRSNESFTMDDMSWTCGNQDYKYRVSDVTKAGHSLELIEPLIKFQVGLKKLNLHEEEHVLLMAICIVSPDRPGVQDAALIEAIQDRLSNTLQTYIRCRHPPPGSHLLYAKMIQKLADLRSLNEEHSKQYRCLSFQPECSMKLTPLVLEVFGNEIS
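Fluorescence polarization assay measuring small-molecule disruption of VDR binding to the coregulator peptide SRC2-3. Compounds were pin-transferred (23 nl) into the reagent mix and incubated 2 h at room temperature before reading.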
An asterisk follows results filed as active; u = inconclusive; & = joins results of further samples. On the % scale 0 is the no-effect control and ±100 the full control effect; potency means the concentration at half of the fitted maximal effect. These rows are one share of the data (hit frequency here may not be typical).

| VDR inhibitor | compound |
| --- | --- |
| -2% | CCC(C)OC(=O)C[N+](C)(C)CCOC1CC2CCC1(C)C2(C)C (stereo not given) |
| 13% | COc1ccc(N(CC(=O)Nc2cccc(F)c2)S(=O)(=O)c2c(C)[nH]c(=O)[nH]c2=O)cc1 |
| 11% | COCc1ccc(CN2CCC(N3CCC(C(=O)N4CCCC4)CC3)CC2)o1 |
| -6% | CCCCn1c(=O)[nH]c(=O)c2c1nc(-c1cc(Br)ccc1OC)n2C |
| -6% | Cc1ccc([N+](=O)[O-])c(C(=O)N/N=C/c2cccs2)c1 |
| -1% | CCN(CC)C(=O)c1ccc(Cn2cc([N+](=O)[O-])cn2)o1 |
| -15% | Cc1nnc(SCC(=O)Nc2ccccc2F)n1-c1ccc(F)cc1 |
| 2% | CCC(C)NC(=O)Cn1c(=O)n(-c2ccc(Cl)c(Cl)c2)c(=O)c2c(C)c(C(=O)N(CC)CC)sc21 (stereo not given) |
| -5% | COc1cccc(C2c3[nH]c4ccccc4c3C[C@H]3C(=O)N(C4CCN(Cc5ccccc5)CC4)CC(=O)N23)c1 (stereo not given in full) |
| -18% | Cc1cc(C(=O)Nc2cccc(C(=O)O)c2)oc1C |
| -2% | O=c1[nH]c(C2CCN(S(=O)(=O)c3ccccc3F)CC2)nc2c1nnn2Cc1ccc2c(c1)OCCO2 |
| 5% | CC(NC(=O)c1ccncc1)C(c1cccs1)N1CCOCC1 (stereo not given) |
| 18% | Cc1ccc(C2Nc3ccccc3-n3c(-c4ccccc4)c4c(=O)n(C)c(=O)n(C)c4c32)o1 (stereo not given) |
| -18% | Cc1cc(CN(C)C(=O)c2cc(COc3ccc(C)c(C)c3)on2)on1 |
| -11% | Cc1[nH]c2ccccc2c1C1(O)C(=O)N(Cc2ccccc2)c2ccc(Cl)cc21 (stereo not given) |
| 1% | COC(=O)C1(CCSC)NC(c2ccc(OC)cc2OC)C2C(=O)N(c3cccc(C(C)=O)c3)C(=O)C21 (stereo not given) |
| 11% | CCOc1ccc(S(=O)(=O)NC(C)C(=O)NCc2cccnc2)cc1 (stereo not given) |
| -8% | CCn1c(C)nc([N+](=O)[O-])c1Sc1ccc(F)cc1 |
| 0% | Cc1nnc2sc(SCC(=O)Nc3cccc(Cl)c3)nn2c1=O |
| 2% | COc1ccc2oc(=O)c(C(=O)NCCc3c(C)[nH]c4c(C)cccc34)cc2c1 |
| -25% | N#Cc1c(C(F)(F)F)cc(=O)n2c1[nH]c1ccccc12 |
| 2% | CCOc1ccccc1NC1c2ccccc2C(=O)N1c1cccnc1 (stereo not given) |
| -11% | COC(=O)C(CC(=O)c1ccc(Br)cc1)n1cccn1 (stereo not given) |
| -1% | O=[N+]([O-])c1ccc2oc(C(O)c3cccc(Cl)c3)cc2c1 (stereo not given) |
| 0% | CCOc1ccc(N2CC(NC(=O)c3ccc(S(=O)(=O)N4CCOCC4)cc3)CC2=O)cc1 (stereo not given) |
| 1% | Cc1ccc2[nH]c3c(=O)n(CC(=O)Nc4ccc(Br)cc4C)ncc3c2c1 |
| 8% | Clc1cccc(N/N=C/c2ccncc2)c1 |
| -13% | CCCCN(CC)Cc1c(O)ccc2c(-c3ccccc3)cc(=O)oc12 |
| 0% | CCOc1ccc(/C=N/NC(=S)NC2CC3CCC2C3)cc1 (stereo not given) |
| -20% | Cc1c(NS(=O)(=O)c2ccc(C(=O)NCc3ccc(F)cc3)cc2)c(=O)n(-c2ccccc2)n1C |

2 records drawn at random from the list so far, as already listed:
| VDR inhibitor | compound |
| --- | --- |
| 1% | Cc1ccc2[nH]c3c(=O)n(CC(=O)Nc4ccc(Br)cc4C)ncc3c2c1 |
| -6% | Cc1ccc([N+](=O)[O-])c(C(=O)N/N=C/c2cccs2)c1 |

(continued)
| VDR inhibitor | compound |
| --- | --- |
| 3% | COc1ccc(C(=O)c2cnc(C(C)C)n2C)cc1 |
| -11% | CC1(c2ccccc2)CC(c2ccccc2)=Nc2ccccc2N1 (stereo not given) |
| -6% | COc1ccc(C(C)C)cc1S(=O)(=O)NCc1ccccn1 |
| -3% | O=c1oc2c3c(ccc2c2ccccc12)OCN(Cc1cccc(Cl)c1)C3 |
| 8% | O=C(COC(=O)/C=C/c1ccc(F)cc1)NC1CCCC1 |
| -24% | C[C@@H]1CN(S(=O)C(C)(C)C)[C@H](CCO)/C1=C\c1ccccc1 (stereo not given in full) |
| 5% | Cc1ccc(C)c(-c2ccc(=O)n(C(C)C(=O)Nc3ccccc3C(F)(F)F)n2)c1 (stereo not given) |
| -6% | CCOC(=O)c1sc(=S)n(-c2ccc(OC)cc2)c1C |
| -8% | Oc1ccc(N2CCN(C(=S)NCCc3ccccc3)CC2)cc1 |
| -5% | O=C(NCCCNc1ccc(C(F)(F)F)cc1[N+](=O)[O-])c1cc(F)c(F)cc1Cl |
| -13% | COc1ccc(CCNC(=O)CS(=O)Cc2nc(-c3ccccc3Cl)oc2C)cc1OC (stereo not given) |
| 16% | Cc1nc(SCC(O)CCl)c([N+](=O)[O-])[nH]1 (stereo not given) |
| -6% | Nc1ccccc1C(=O)NC(=O)Nc1ccc(Oc2ncc(Br)cn2)c(Cl)c1 |
| -11% | CN(CC(=O)NCCc1ccc(S(N)(=O)=O)cc1)c1ccccc1 |
| 16% | Cc1ccc(C)c(NC(=S)N(Cc2ccco2)C(C)c2cccs2)c1 (stereo not given) |
| 11% | COc1ccccc1CNC(=O)CCNS(=O)(=O)c1cccc2nonc12 |
| 8% | COc1ccccc1CNS(=O)(=O)c1c(C(=O)N2CCCCC2)c(C)n(C)c1C |
| -3% | Cc1cc(C)cc(NC(=O)c2sc3nc(C)cc(C)c3c2N)c1 |
| 3% | CCN(Cc1ccc(C#CCCO)cc1)CC1CCCN(CCc2cccc(F)c2)C1 (stereo not given) |
| -7% | COCCN1C(=O)c2ccccc2C(C(=O)NCc2ccco2)C1c1c[nH]c2ccccc12 (stereo not given) |
| 12% | CN(C(=O)C1CCC(=O)N(CCc2ccc(Cl)cc2)C1)C1CCOCC1 (stereo not given) |
| 12% | O=C(NCCCCCCNC(=O)N1CCCCCC1)N1CCCCCC1 |
| 13% | COc1ccc(-n2nc3c(c2NC(=O)c2cc(Br)ccc2Cl)CS(=O)C3)cc1 (stereo not given) |
| -10% | S=C(N/N=C/c1ccc2ncccc2c1)Nc1cccnc1 |
| -19% | CCCSc1ccc([C@@H]2[C@@H]3C(=O)N(C)C(=O)[C@@H]3[C@]3(C(=O)OC)CCCCN23)cc1OC |
| 2% | CCc1cc2c(=O)n(CC(=O)NCCc3ccc(OC)c(OC)c3)cnc2s1 |
| 10% | N#CC1(CCCN2CCCCC2)c2ccccc2CCc2ccccc21 |
| -2% | Cc1ccc(S(=O)(=O)n2cnc3ccccc32)cc1 |
| 0% | CC(C)(C)c1cc(NC(=O)COC(=O)C2CC2)n(-c2ccccc2)n1 |
| 0% | COc1cccc(CNC(=O)C2CCCN(c3nnc(-n4c(C)ccc4C)s3)C2)c1OC (stereo not given) |

Sorted by value in VDR inhibitor (high to low): some entries from above.
| VDR inhibitor | compound |
| --- | --- |
| 0% | COc1cccc(CNC(=O)C2CCCN(c3nnc(-n4c(C)ccc4C)s3)C2)c1OC (stereo not given) |
| -6% | Nc1ccccc1C(=O)NC(=O)Nc1ccc(Oc2ncc(Br)cn2)c(Cl)c1 |
| -11% | CC1(c2ccccc2)CC(c2ccccc2)=Nc2ccccc2N1 (stereo not given) |

Continuation.
| VDR inhibitor | compound |
| --- | --- |
| -5% | N#Cc1c(NC(=O)/C=C/c2ccco2)sc2c1CCCC2 |
| -17% | COc1cccc(CN(C)Cc2nc3cc(C(F)(F)F)ccc3c(=O)[nH]2)c1 |
| -14% | COCCNC(=O)c1cccc(OC2CCN(Cc3ccccc3OCCO)CC2)c1 |
| -11% | c1ccc(-n2c(-c3cccs3)nc3nc4ccccc4nc32)cc1 |
| 5%&-4% | COc1ccccc1C(=O)Nc1c(C(=O)N(CCN(C)C)Cc2ccco2)oc2ccccc12 |
| 2% | CC(C)(C)OC(=O)N1CCNc2ccccc2C1 |
| -8% | Cc1ccc(-c2nnn(C(C)C(=O)N3c4ccccc4CCc4ccccc43)n2)cc1 (stereo not given) |
| -2% | O=C(CCSc1ccccc1)Nc1nc2c(s1)COc1ccccc1-2 |
| -7% | O=C(COC(=O)c1cc(Cl)ccc1O)NCCNC(=O)COC(=O)c1cc(Cl)ccc1O |
| -15% | CC(Oc1ccc(Br)cc1)C(=O)N1CCc2ccccc21 (stereo not given) |
| -4% | O=C(CNCC1CCCO1)Nc1ccccc1N1CCOCC1 (stereo not given) |
| u | Cc1nn(-c2ccccc2)c(Cl)c1/C=C/C(=O)c1ccccc1 |
| -17% | CCCc1nnc(NC(=O)CCC(=O)Nc2ccc(Br)cc2)s1 |
| 6% | O=C(CC(NCc1ccccn1)C(=O)O)Nc1ccccc1Cl (stereo not given) |
| -12% | COC(=O)NC(c1ccccc1)C1(C(=O)OC)C(=O)Cc2ccccc21 (stereo not given) |
| -1% | COC(=O)c1cc(OC)c(OC)cc1NCC(=O)Nc1cccc(C(F)(F)F)c1 |
| -7% | COc1ccc(C(=O)NCCNc2ncc(C(F)(F)F)cc2Cl)cc1[N+](=O)[O-] |
| -23% | CC1CCCCN1CCNC(=O)c1ccc2c(c1)N(Cc1cccc(Cl)c1)C(=O)c1ccccc1S2=O (stereo not given) |
| -23% | O=C(NCCO)/C(=C/c1ccc2c(c1)OCO2)NC(=O)c1ccc(Br)cc1 |
| -26% | Cc1ccccc1S(=O)(=O)Cc1ccc(C(=O)N2CCN(c3ccccc3F)CC2)o1 |
| 5% | CCCCC(=O)OCC(=O)c1[nH]c(C)c(C(=O)OCC)c1C |
| 18% | COC(=O)c1ccccc1NC(=O)CSc1nc(C)cc(C)n1 |
| 14% | O=C(CSc1nnc(NC2CCCCC2)s1)N1CCOCC1 |
| -17% | CCc1cc(OCCCCNCc2ccccc2)ccc1Cl |
| -3% | Cc1ccc(C(=O)Nc2c(C(=O)NCc3ccco3)cnn2-c2ccccc2)cc1 |
| 0% | O=c1c(S(=O)(=O)c2ccc(Cl)cc2)cn(Cc2cccc(F)c2)c2ccc(F)cc12 |
| 79µM* | COc1cc(/C=C2\C(=N)N3N=CSC3=NC2=O)ccc1OS(=O)(=O)c1ccccc1 |
| 6% | CNC(=O)C1CC(=O)N(c2ccc(C)cc2)C1 (stereo not given) |
| -3% | CC(NC(=O)c1ccccc1)C(=O)NC1CCCc2ccccc21 (stereo not given) |
| -3% | Cc1ccc(Oc2ccc(NC(=O)CCC(=O)OCC(=O)c3cccs3)cc2)cc1C |

VDR inhibitor, entries above that show a hit.
| VDR inhibitor | compound |
| --- | --- |
| 79µM* | COc1cc(/C=C2\C(=N)N3N=CSC3=NC2=O)ccc1OS(=O)(=O)c1ccccc1 |

Next structures follow.
| VDR inhibitor | compound |
| --- | --- |
| 9% | Cc1cccc(-n2ncc3c(N4CCCC(C)C4)ncnc32)c1 (stereo not given) |
| 9% | CC1(C)NC(=O)N(c2ccccc2Cl)C1(C)NO (stereo not given) |
| -3% | Cc1ccc2c(c1)NC(=O)C(CC(=O)NCCCN1CCN(c3cc(Cl)ccc3C)CC1)O2 (stereo not given) |
| 9% | Cc1ccc(OCCC(=O)OCC(=O)NCCc2ccccc2)cc1 |
| 3% | COc1cc(C=O)ccc1OCCSc1ccc(C)cc1 |
| -3% | Cn1c(=O)c2c(-c3ccc(Br)cc3)n(Cc3ccc(F)cc3)cc2n(C)c1=O |
| 2% | CCOc1ccccc1NS(=O)(=O)c1c(C)noc1C |
| -17% | CCCCn1c(=S)[nH]c2ncccc2c1=O |
| 4% | Cc1nc2c(-c3ccc(F)cc3)cnn2c(N)c1-c1ccc(F)cc1 |
| -15% | CC(=O)c1ccc(Nc2c([N+](=O)[O-])ccc3nonc23)cc1 |
| 0% | O=C(c1cccc([N+](=O)[O-])c1)N1CCN(Cc2ccccc2)CC1 |
| 6% | O=C(COC(=O)c1c[nH]c2ccccc12)NC1CCCC1 |
| -14% | CCCOc1cccc(C(=O)Nc2cc(-c3nc4ccccc4[nH]3)ccc2C)c1 |
| -6% | COc1cc2c3nnc(-c4ccc(F)cc4)c-3cn(Cc3ccc(F)cc3)c2cc1OC |
| 3% | Cc1cc(C)c(S(=O)(=O)c2ccccc2)c(N(C)C)n1 |
| -11% | COc1cccc(C(=O)NC2(C(F)(F)F)C(=O)Nc3c2c(=O)[nH]c(=O)n3-c2ccc(C)cc2)c1 (stereo not given) |
| -3% | CCCn1c(N)c(C(=O)CSc2nnc(C3CC3)n2-c2ccccc2)c(=O)[nH]c1=O |
| -4% | COc1ccc2nc(SC)cc(C)c2c1 |
| 2% | CCOC(=O)c1c(NC(C)=O)c2c3c(sc2n1Cc1cc(C)ccc1C)CCCC3 |
| 28% | Cc1nc2nc(-c3cccs3)cn2nc1C |
| 6% | Cc1cccn2c(CNCC3OCCc4ccccc43)c(C(=O)N3CCCCC3)nc12 (stereo not given) |
| 17% | O=C(Cc1c(O)c2ccccc2[nH]c1=O)OC1CCCCC1 |
| 15% | CC(=O)Nc1nc(COc2ccccc2)cs1 |
| 1% | O=c1cc[nH]c2cccc(Cc3ccccc3)c12 |
| 0% | COc1ccc(NC(=O)CSCc2cc(=O)n3c(C)csc3n2)cc1 |
| -17% | COC(=O)c1c(NC(=O)CC2Nc3cc(C)c(C)cc3NC2=O)sc(C)c1C (stereo not given) |
| u | Cn1cc(S(=O)(=O)c2ccccc2)c(=O)c2cc(Cl)ccc21 |
| 9% | O=C(NCc1ccc(S(=O)(=O)NC2CCCCC2)s1)c1ccccc1 |
| -19% | CCc1c(C)nc2nc(NC(C)=O)[nH]n2c1=O |
| -6% | CC(C)(C)n1nnnc1CN(Cc1cccnc1)Cc1ccccc1Cl |
| 0% | CC(C)CNC(=O)c1cc(-c2ccc(Br)cc2)on1 |
| -22% | Cc1cc(NC(=O)CCC(=O)N(CCC(C)C)C(C(=O)NCC2CCCO2)c2ccccc2C)no1 (stereo not given) |
| 6% | COc1ccc(N)c(C)c1 |

An excerpt of these results, comma-delimited.
SMILES,VDR inhibitor
CC(C)CNC(=O)c1cc(-c2ccc(Br)cc2)on1,0%
Cc1cc(NC(=O)CCC(=O)N(CCC(C)C)C(C(=O)NCC2CCCO2)c2ccccc2C)no1 (stereo not given),-22%
